Assay outcomes as filed in PubChem.
PKD1 inh: PKD1 (human) kinase inhibition | Q15139 | PKD1 kinase fluorescence polarization assay | inhibition, %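 (about 10 µM by stock and volumes)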 | 0.056% of 200,000 active;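 active = inhibition of 50% or more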;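 also: controls were vehicle for no effect and a reference inhibitor for full effect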
HSV augment: HSV replication enhancement | maximum fold increase | HSV replication augmentation in cells, fold increase | AID 1956 | 0.005% of 220,000 active;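 active = peak rise of 1.5-fold or more in the series; inconclusive = self-fluorescent or not available for retest; tested in PC3 cells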;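 also: first round at 10 µM; read as green reporter fluorescence; hits show the peak of a series up to 25 µM; 1 = signal of infected wells without compound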
GALR2 ag: GALR2 (human) receptor agonism; GALR2-expressing cells, agonist activation read-out; O43603; activation, %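 (tested at 5 µM)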; 0.48% of 140,000 active;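 active = above mean plus 3 SD of all compounds, about 5% in these data, not always enough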;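 also: 0% = vehicle buffer wells and 100% = reference agonist at full effect; tested in CHO reporter cells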
Target sequence (O43603 whole entry, looked up): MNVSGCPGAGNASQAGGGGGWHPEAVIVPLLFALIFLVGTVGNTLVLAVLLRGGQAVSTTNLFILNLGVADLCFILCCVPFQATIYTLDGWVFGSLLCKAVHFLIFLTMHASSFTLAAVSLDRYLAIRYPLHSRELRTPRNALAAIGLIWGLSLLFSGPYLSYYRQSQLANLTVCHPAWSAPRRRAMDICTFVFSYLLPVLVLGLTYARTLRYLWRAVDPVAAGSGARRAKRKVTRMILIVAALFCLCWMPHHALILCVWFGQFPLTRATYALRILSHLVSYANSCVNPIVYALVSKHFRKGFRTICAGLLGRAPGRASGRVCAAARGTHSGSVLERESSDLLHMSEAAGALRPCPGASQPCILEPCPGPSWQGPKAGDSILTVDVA
RGS16-Gao HTS: regulators of human RGS16-Galphao interaction. 0.38% of 220,000 active. O15492+P09471. AID 1441. bead-based flow cytometry RGS16-Galphao binding, fluorescence; actives lie on both sides. binding response (% of control), % at 10 µM;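 active = below 25% or above 175%, edge rows of some plates excepted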;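 also: Galphao activated by GDP with aluminum fluoride before binding; 100% = wells without compound and 0% = beads without RGS; some results beyond the cut were filed as inactive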
Target sequence (O15492 whole entry, looked up): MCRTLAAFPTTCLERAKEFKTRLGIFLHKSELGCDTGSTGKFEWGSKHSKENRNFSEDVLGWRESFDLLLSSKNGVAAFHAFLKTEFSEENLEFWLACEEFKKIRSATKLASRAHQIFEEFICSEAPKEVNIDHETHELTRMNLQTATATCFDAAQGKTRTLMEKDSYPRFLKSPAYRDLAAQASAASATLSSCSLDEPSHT
Target sequence (P09471 whole entry, looked up): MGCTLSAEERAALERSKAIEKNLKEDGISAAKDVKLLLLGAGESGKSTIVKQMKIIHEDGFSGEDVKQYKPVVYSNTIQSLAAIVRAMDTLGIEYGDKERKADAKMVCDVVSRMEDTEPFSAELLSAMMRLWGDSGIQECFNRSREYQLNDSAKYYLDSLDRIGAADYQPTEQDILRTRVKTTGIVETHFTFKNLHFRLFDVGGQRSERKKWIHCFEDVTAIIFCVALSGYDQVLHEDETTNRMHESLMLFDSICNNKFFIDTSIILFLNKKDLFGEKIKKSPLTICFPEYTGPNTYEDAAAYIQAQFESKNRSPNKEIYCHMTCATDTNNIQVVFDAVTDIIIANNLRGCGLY
Insulin prom inh: TRM-6 insulin promoter activity inhibition; TRM-6 cells (human fetal islet line), insulin promoter-eGFP reporter, imaging; reporter expression induced with tamoxifen; inhibition, % at 2 µM; 0.9% of 130,000 active;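 active = inhibition above the mean plus 3 SD, with well images judged a real hit on visual review, cut at about 60% in these data, passing the limit was not always enough; inconclusive = inhibition over the cutoff but images rejected on review; inactive = inhibition not above the cutoff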
Insulin prom inh cell count: recorded beside Insulin prom inh, whose call it bears; normalized cell count, %; measured here: cell count, toxicity; reference of the scale not given here;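 cells exposed to compound for 48 h; stained nuclei by imaging scaled within each plate; lower means fewer cells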
HSV augment primary fold: second read-out of HSV augment, no call of its own (marks repeat the call); fold increase; compound at 10 µM; measured here: primary screen fold increase 10 uM; tested in PC3 cells;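 GFP signal in the first replicate; 1 = infected wells without compound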
Active calls of the source: *; i = inactive; ? = inconclusive; . = not tested or not shown. Rows were taken by chance. Share with any hit: about 1.3%.

SMILES	PKD1 inh	HSV augment	HSV augment primary fold	GALR2 ag	RGS16-Gao HTS	Insulin prom inh	Insulin prom inh cell count
CCN(CC)c1ccc(NC(=O)CN2CCN(c3nc(C)cc(C)n3)CC2)cc1	10	i	0.95	-0.8	87	.	.
Fc1ccc(/C=N/Nc2nnnn2-c2ccccc2)cc1	-5	i	0.95	.	109	-44	103
O=C(CSc1nc2scc(-c3ccco3)c2c(=O)n1-c1ccccc1)N1CCOCC1	1	i	1.1	-1.0	90	23	114
Cc1cc(C)cc(-n2nnnc2-c2cn(C)nc2C(F)(F)F)c1	-6	i	1	-4.5	99	-132	109
C=CCN1C(=O)C2C(C(=O)NCc3ccccc3)C3(C)C=CC2(O3)C1C(=O)NC(C)(C)C (centres undefined)	-6	i	1.1	-1.4	101	25	44
N#CCCCCn1c(-c2cncs2)nc2ccccc21	-13	i	1	-1.1	99	.	.
C/C(=N\OCC(=O)Nn1c(=O)[nH]c2ccccc2c1=O)c1ccccc1	-9	i	1	-0.6	105	6	99
COc1ccc(C(=O)Nn2cnnc2)cc1	4	i	0.95	0.2	44	.	.
FC(F)(F)c1cccc(OCC2CNC(=S)O2)c1 (centres undefined)	.	i	0.88	.	102	.	.
CCOC(=O)Cc1csc(/N=C/c2c(O)n(-c3ccccc3C(F)(F)F)c(=O)c3ccccc23)n1	-10	i	1.3	0.0	122	40	90
Cc1cc(C)n(-c2nc3ccccc3nc2N2CCC(C)CC2)n1	-6	i	1	0.1	101	-247	112
O=C(Cc1ccc(Cl)cc1)c1c[nH]c(C(=O)NCCCn2ccnc2)c1	0	i	0.88	.	111	-109	135
Cc1cccc(C2c3[nH]c4ccccc4c3CCN2C(=O)CN2CCOC2=O)n1 (centres undefined)	-2	i	0.99	.	98	.	.
CCn1c(SCCC(C)C)nnc1-c1c[nH]c2ccccc12	3	i	0.91	-2.2	99	.	.
O=C(/C=C/c1cnc2ccccc2n1)NC1CCCCCC1	6	i	0.77	-0.8	67	.	.
C=CCN(C)CCCNC(=O)/C=N/O	-3	i	1.2	-0.8	105	.	.
Cc1cccc(NC(=S)NCCc2c[nH]c3ccccc23)c1	4	i	0.96	-1.6	99	10	98
CCOc1ccc(C(=O)CSCCC(=O)O)cc1	4	i	0.92	.	102	9	113
CCOC(=O)N1CCN(c2c(N3CCN(c4ccc(OC)cc4)CC3)c(=O)c2=O)CC1	-2	i	0.81	-1.2	108	.	.
O=S(=O)(c1ccccc1)N1CC=C(c2ccccc2)CC1	-2	i	0.99	.	106	6	88

Exported with values under each structure: entries from further up.
Below each compound: PKD1 inh	HSV augment	HSV augment primary fold	GALR2 ag	RGS16-Gao HTS	Insulin prom inh	Insulin prom inh cell count
> C/C(=N\OCC(=O)Nn1c(=O)[nH]c2ccccc2c1=O)c1ccccc1
  -9	i	1	-0.6	105	6	99
> COc1ccc(C(=O)Nn2cnnc2)cc1
  4	i	0.95	0.2	44	.	.
> FC(F)(F)c1cccc(OCC2CNC(=S)O2)c1 (centres undefined)
  .	i	0.88	.	102	.	.
> CCOC(=O)Cc1csc(/N=C/c2c(O)n(-c3ccccc3C(F)(F)F)c(=O)c3ccccc23)n1
  -10	i	1.3	0.0	122	40	90
> Cc1cc(C)n(-c2nc3ccccc3nc2N2CCC(C)CC2)n1
  -6	i	1	0.1	101	-247	112
> O=C(Cc1ccc(Cl)cc1)c1c[nH]c(C(=O)NCCCn2ccnc2)c1
  0	i	0.88	.	111	-109	135
> Cc1cccc(C2c3[nH]c4ccccc4c3CCN2C(=O)CN2CCOC2=O)n1 (centres undefined)
  -2	i	0.99	.	98	.	.
> CCn1c(SCCC(C)C)nnc1-c1c[nH]c2ccccc12
  3	i	0.91	-2.2	99	.	.
> O=C(/C=C/c1cnc2ccccc2n1)NC1CCCCCC1
  6	i	0.77	-0.8	67	.	.
> C=CCN(C)CCCNC(=O)/C=N/O
  -3	i	1.2	-0.8	105	.	.
> Cc1cccc(NC(=S)NCCc2c[nH]c3ccccc23)c1
  4	i	0.96	-1.6	99	10	98
> CCOc1ccc(C(=O)CSCCC(=O)O)cc1
  4	i	0.92	.	102	9	113
> CCOC(=O)N1CCN(c2c(N3CCN(c4ccc(OC)cc4)CC3)c(=O)c2=O)CC1
  -2	i	0.81	-1.2	108	.	.
> O=S(=O)(c1ccccc1)N1CC=C(c2ccccc2)CC1
  -2	i	0.99	.	106	6	88

The listing continues.
SMILES	PKD1 inh	HSV augment	HSV augment primary fold	GALR2 ag	RGS16-Gao HTS	Insulin prom inh	Insulin prom inh cell count
O=C(COc1cccc2ccccc12)N/N=C/c1ccccc1OCc1ccc(C(=O)O)cc1	0	i	0.95	.	78	-5	122
COc1ccc(NC(=O)C2CCN(S(=O)(=O)c3ccc(C)cc3)CC2)cc1OC	8	i	0.8	2.0	103	-44	116
CC1CC(=O)N(CC(=O)NCc2ccco2)c2ccccc2S1 (centres undefined)	-1	i	0.85	-2.0	100	.	.
O=C1CC(NCCN2CCOCC2)C(=O)N1Cc1ccc(N2CCCC2=O)cc1 (centres undefined)	-6	i	0.65	-0.9	108	-85	138
CC(=O)Nc1ccc(NC(=O)C(C)OC(=O)c2ccc(OCc3c(C)noc3C)cc2)cc1 (centres undefined)	2	i	1.1	-2.7	98	-29	123
CCOC(=O)C=C(C(=O)OCC)C(=O)OCC	5	i	0.96	.	94	.	.
CCOC(=O)c1sc(NC(=O)CSc2nc3c(c(=O)n2-c2ccccc2)SCC3)c(C(=O)OCC)c1C	3	i	0.88	-0.5	115	-37	83
CCn1c(SCC(=O)Nc2ccc(C(C)=O)cc2)nc2nc3c(cc2c1=O)COC(C)(C)C3	.	i	0.89	.	101	.	.
CC(=O)Nc1ccc(Nc2c3c4c(cccc4n(C)c2=O)C(=O)c2ccccc2-3)cc1	-4	?	.	0.5	69	-75	59
CC(=O)Nc1ccc(S(=O)(=O)Nc2ccc(F)c([N+](=O)[O-])c2)cc1	0	i	1	.	102	.	.
O=C(c1ccccc1)c1ncc(C(F)(F)F)cc1Cl	10	i	0.91	-0.5	101	30	79
O=c1cc[nH]c2ccc(OC(F)(F)F)cc12	.	i	1	.	105	.	.
O=C(Nc1ccc(S(=O)(=O)N2CCOCC2)cc1)c1ccc2c(c1)OCO2	.	i	1.1	.	102	.	.
CCn1c(-c2cc(OC)ccc2OC)csc1=Nc1c(C)n(C)n(-c2ccccc2)c1=O	-7	i	0.94	-1.5	99	.	.
Cc1ccc(C2CC(C(F)(F)F)n3nc(C(=O)NCC4CCCO4)cc3N2)cc1 (centres undefined)	-11	i	0.99	-3.1	106	13	85
Cc1ccc(-n2c(=O)c3sccc3n(CC(=O)NCc3ccco3)c2=O)cc1F	-4	i	1.1	-1.1	105	-14	118
Cc1noc(C)c1CSc1nnc2ccc3ccccc3n12	-7	i	0.77	-1.8	101	-52	73
Cc1cc(=O)oc2cc(NC(=O)CC3(CC(=O)O)CCCC3)ccc12	.	i	1.1	.	98	.	.
O=C(c1nsnc1-c1ccccc1O)N1CCCCC1	-1	i	1	-1.5	101	39	119
COCCCNC(=S)NCCNc1nc2cc(C)c(C)cc2cc1C#N	-3	i	0.9	.	101	.	.
COc1ccc(NC(=O)C2CCCN(S(=O)(=O)c3cccc4nonc34)C2)c(OC)c1 (centres undefined)	-2	i	1	-1.2	111	-25	62
CCOc1ccc(OCC)c(S(=O)(=O)NCc2cccnc2)c1	-1	i	1	0.1	145	5	151
CCCCCCSc1nnc2[nH]c(=O)cc(N)n12	2	i	0.93	-1.7	86	38	143
Cc1ccc(NC(=O)C[n+]2cc(-c3ccc(C)cc3)n3c2CCC3)cc1	.	i	1.1	.	95	.	.
Cn1c(=O)oc2cc(S(=O)(=O)N3CCN(c4ccc(F)cc4)CC3)ccc21	-11	?	.	-0.5	104	70*	50*
COc1ccc(OCc2nc(C#N)c(N3CCN(c4ccc(OC)cc4)CC3)o2)cc1	-9	i	0.98	-2.5	107	.	.
O=C(CC(Nc1ccc(Cl)cc1)C(=O)O)c1ccccc1 (centres undefined)	2	i	1.1	-1.4	106	22	125
CCN(CC)C(=O)c1ccccc1NC(=O)c1ccccc1C	-6	i	1	.	101	-44	77
Cc1ccc(/C=N/n2c(COc3ccccc3)n[nH]c2=S)s1	-8	i	0.87	-1.4	101	-10	61
COc1ccc(C(=O)Nc2c(-c3cccs3)c(=O)c3ccccc3n2C)cc1	.	i	1	.	102	.	.
COc1ccc2nc(COC(=O)c3cccs3)c(C(C)=O)[n+]([O-])c2c1	.	i	1.1	.	100	.	.
COc1ccc(CC(=O)c2ccc(O)cc2O)cc1OC	-9	i	0.9	-1.9	70	.	.
O=C(/C=C/c1ccccc1Cl)N(Cc1ccc(Cl)cc1)C1CCS(=O)(=O)C1 (centres undefined)	0	i	0.89	0.9	97	-7	121
COc1ccc(C(=O)Nc2ccccc2C(=O)N/N=C/c2cccc3ccccc23)cc1	7	i	0.99	-1.9	117	.	.
N#CCCNC(=O)Cn1c(COc2ccc(Cl)cc2)nc2ccccc21	4	i	1.1	-0.6	112	-47	97
CCOC(=O)C1=NN(C(=O)c2ccc(OC)cc2)C(O)(c2ccc(Cl)cc2)C1 (centres undefined)	-17	i	1.3	-1.6	100	-33	110
Cc1cc(C)c(S(C)(=O)=O)c(N(C)N)n1	4	i	0.95	.	100	75*	67*
N#C/C(=C\c1ccc(OCC(N)=O)cc1)S(=O)(=O)c1ccccc1	-2	i	0.94	.	110	.	.
CC(C)(C)c1ccc(OCC(=O)NNC(=O)CCc2ccccc2)cc1	-1	.	.	-1.3	119	17	80
O=C(c1ccc([N+](=O)[O-])cc1)N1CCN=C1SCc1ccccc1	-4	i	0.92	.	105	.	.
CC(=O)Nc1ccc(Nc2nnc(-c3ccc(C)c(S(=O)(=O)NCC4CCCO4)c3)c3ccccc23)cc1 (centres undefined)	.	i	0.73	.	103	.	.
O=S(=O)(NCc1ccco1)c1cccc(S(=O)(=O)N2CCCCC2)c1	-2	.	.	-1.8	102	.	.
COc1ccc(NC(=O)c2c(NC(=O)CCC(=O)O)sc(-c3ccccc3)c2C)cc1	-4	i	0.96	.	94	14	76
COc1ccccc1NC(=O)CSCC(N)=O	0	i	0.72	-2.2	106	40	80
Cc1nnc(SCC(=O)NC(=O)Nc2ccc3c(c2)OCCO3)s1	3	i	0.9	.	102	.	.
COc1ccc(C=O)cc1Oc1nc(Cl)ncc1F	2	i	0.88	.	107	13	222
CCCCCCNC(=O)c1ccc(Br)o1	-6	i	1.1	-0.5	109	48	111
CCN1C(=O)C2(Nc3ccccc3-c3nc4ccccc4n32)c2cc(OC)ccc21 (centres undefined)	1	.	.	-1.0	125	-112	133
O=C(O)Cc1c(-c2ccccc2Cl)c2cc(Br)ccc2[nH]c1=O	.	i	1.2	.	95	.	.
Cc1cccc(CNCc2ccccc2)c1	-9	i	0.85	-0.5	65	-26	99
CCOC(=O)c1c(NS(=O)(=O)Cc2ccccc2)sc2c1CCCC2	3	i	0.86	-2.8	104	25	104
